Ecoli rRNA inh – selective bacterial rRNA inhibition in E. coli. GFP signal change (wild-type ribosome), % (test concentration not listed). E. coli WT GFP vs humanized-ribosome RFP mutants, fluorescence, 24 h; hits give low values; DMSO median 0, no signal -100. 350,000 tested, 1.6% active;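 active = significant combined selectivity score with lowered wild-type GFP, culture density cut under 30%, mutant RFP and density less affected; inactive = any of these conditions unmet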; also: one replicate is shown; some compounds called inactive have numbers as strong as hits
Ecoli rRNA inh OD600 – further read-out of Ecoli rRNA inh, marked with its call; OD600 change, %; measured here: OD600 growth;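 optical density of the mix in the first replicate; 0 = DMSO median and -100 = no signal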
Ecoli rRNA inh RFP – recorded beside Ecoli rRNA inh, whose call it bears; RFP signal change, %; measured here: RFP humanized mutant strains;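 first replicate; 0 = DMSO median and -100 = no signal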
Starred values were filed as active, the others as inactive. Not all compounds are listed. The share of hits here may be higher or lower than overall.

Below each compound: Ecoli rRNA inh, Ecoli rRNA inh OD600, Ecoli rRNA inh RFP
> Cc1cc(C(=O)Nc2cccc3c2O[C@H](CN(C)C(=O)Nc2cccc4ccccc24)[C@@H](C)CN([C@H](C)CO)C3=O)n(C)n1
 : 2, 13, -0.6
> COc1ccc(CNC(=O)C[C@H]2CC[C@H](NC(=O)c3ccc4c(c3)OCO4)[C@H](CO)O2)cc1
 : -2, 1, -1.0
> CCNC(=O)C[C@@H]1CC[C@H]2[C@@H](COC[C@@H](O)CN2C(=O)Nc2ccc(Cl)c(Cl)c2)O1
 : -58, -60, -1.2
> O=C(Cc1ccccn1)N1CC(=O)N2[C@H](CO)[C@H](c3ccc(C#CCC4CCCC4)cc3)[C@@H]2C1
 : -17, -48, 18
> COc1cccc(C(=O)Nc2ccc3c(c2)C(=O)N(C)C[C@H](OC)[C@H](C)CN[C@H](C)CO3)c1
 : 1, 6, -3.9
> CCCNC(=O)N[C@H]1C=C[C@@H](CC(=O)NC2CCCCC2)O[C@@H]1CO
 : 1, 8, -1.1
> CCOC(=O)C(=O)Nc1ccc(S(=O)(=O)Nc2nccc(C)n2)cc1
 : 11, 14, 2.8
> O=C(OCc1cn([C@@H]2C[C@H](c3ccc(Cl)cc3)N(Cc3cccs3)C[C@H]2O)nn1)c1ccccc1
 : 23, 17, 2.2
> CCC(=O)N1CCC2(CC1)CN(Cc1cc(F)ccc1F)[C@@H](CO)c1[nH]c3cc(OC)ccc3c12
 : 3, 8, 1.6
> COc1cccc(S(=O)(=O)N[C@H]2CC[C@H](CC(=O)NC3CCC3)O[C@H]2CO)c1
 : 1, -1, -2.4
> O=C(C[C@H]1CC[C@@H](NC(=O)c2ccncc2)[C@@H](CO)O1)NCCc1ccncc1
 : 4, 9, -0.2
> O=C(c1cnccn1)N1CC[C@@H]2[C@H]1c1cc(-c3ccccc3)ccc1N[C@@H]2CO
 : -3, 0, -1.0
> C[C@H]1CN([C@@H](C)CO)C(=O)c2ccccc2-c2ccccc2CO[C@H]1CN(C)Cc1ccc(Cl)c(Cl)c1
 : 0, -2, 1.3
> C[C@H]1CN([C@@H](C)CO)S(=O)(=O)c2ccc(-c3ccc(C#N)cc3)cc2O[C@H]1CN(C)C(=O)Nc1cc(F)ccc1F
 : -5, -6, 2.4
> COc1ccc(NC(=O)Nc2cccc3c2O[C@@H](CN(C)Cc2ccccc2)[C@@H](C)CN([C@@H](C)CO)C3=O)cc1
 : 0, 0, -1.1
> CC=Cc1ccc2n(c1=O)C[C@@H]1[C@@H](CO)[C@H](C(=O)NCC)[C@H]2N1Cc1nccs1 (mixture of isomers)
 : 2, 8, 2.2
> O=C(NCC1CC1)[C@H]1[C@H](CO)[C@H]2Cn3c(cccc3=O)[C@@H]1N2C(=O)c1ccc(F)cc1
 : 2, 5, 1.0
> COCC(=O)N1CC2(C1)CN(Cc1ccc3c(c1)OCO3)[C@H](CO)c1c2c2ccc(OC)cc2n1C
 : 1, 1, -0.1
> COc1cccc(NC(=O)N[C@@H]2CC[C@@H](CC(=O)Nc3ccccc3)O[C@@H]2CO)c1
 : 0, -10, -1.9
> COCC(=O)N1[C@H](CO)[C@@H](c2ccccc2)C12CN(C(=O)c1cccnc1)C2
 : 4, 7, -2.6
> Cc1ccc(S(=O)(=O)N(C)C[C@H]2Oc3ccc(NC(=O)Nc4ccc5c(c4)OCO5)cc3CC(=O)N([C@H](C)CO)C[C@@H]2C)cc1
 : -2, -3, -3.0
> OC[C@H]1O[C@@H](c2nc(-c3ccc(Br)cc3)no2)C[C@@H]1O
 : -2, 2, -0.2
> C[C@H]1CN([C@@H](C)CO)C(=O)c2cccc(NS(=O)(=O)c3ccccc3)c2O[C@@H]1CN(C)C
 : 3, 9, 0.0
> C[C@H](CO)N1C[C@H](C)[C@@H](CN(C)S(=O)(=O)c2cn(C)cn2)Oc2c(NC(=O)c3nc4ccccc4s3)cccc2C1=O
 : -5, -6, -1.0
> C[C@@H]1CN([C@@H](C)CO)C(=O)c2cccc(NC(=O)C3CC3)c2O[C@@H]1CN(C)Cc1ccc(-c2ccccc2)cc1
 : -3, -10, -0.7
> C[C@@H]1CN([C@H](C)CO)C(=O)c2cc(N(C)C)ccc2O[C@H]1CN(C)S(=O)(=O)c1ccc(F)cc1
 : -1, -1, -1.6
> C[C@@H]1CN([C@@H](C)CO)S(=O)(=O)c2ccc(C#Cc3ccccc3)cc2O[C@@H]1CN(C)C(=O)Nc1ccccc1
 : -1, -1, -2.1
> C[C@@H]1CN([C@H](C)CO)S(=O)(=O)c2ccc(-c3ccc(C(=O)N(C)C)cc3)cc2O[C@@H]1CN(C)C
 : 5, 2, -0.3
> Cc1noc(C)c1NC(=O)N[C@@H]1CC[C@H](CC(=O)N2CCN(C)CC2)O[C@H]1CO
 : 0, -1, -1.5
> C/C=C/c1cnc2c(c1)C(=O)N([C@H](C)CO)C[C@@H](C)[C@H](CN(C)C(=O)CN1CCOCC1)O2
 : 4, 11, -0.5
> C[C@H](CO)N1C[C@H](C)[C@H](CN(C)C(=O)c2cccc(F)c2)Oc2ncc(/C=C/c3ccccc3)cc2C1=O
 : -5, -13, 6.2
> CO[C@@H]1CN(C)C(=O)c2cc(NC(=O)c3ccccc3)ccc2OC[C@@H](C)N(CC2CC2)C[C@@H]1C
 : 1, 2, 0.0
> C[C@@H]1CN([C@H](C)CO)C(=O)c2cccc(NS(=O)(=O)c3ccccc3)c2O[C@H]1CN(C)Cc1ccc(C(F)(F)F)cc1
 : 1, 2, -3.2
> C[C@@H]1CN([C@H](C)CO)S(=O)(=O)c2ccc(C3=CCCCC3)cc2O[C@H]1CN(C)C(=O)C1CCCCC1
 : -5, -10, 7.8
> COCC(=O)N1CC[C@H]2[C@H](CO)Nc3ccc(C#Cc4ccccc4)cc3[C@H]21
 : -3, 2, -2.3
> CC(C)NC(=O)N(C)C[C@H]1Oc2cc(C#CC(C)(C)O)ccc2S(=O)(=O)N([C@@H](C)CO)C[C@@H]1C
 : 1, -1, -1.2
> C/C=C/c1ccc([C@H]2[C@@H](CO)N(C(C)=O)C23CN(C(=O)NC2CCCC2)C3)cc1
 : 0, -9, -1.1
> CN1c2ccc(Br)cc2[C@@H]2[C@@H](CCN2S(=O)(=O)c2ccccc2F)[C@@H]1CO
 : -55, -76, -14
> COc1ccc(C(=O)c2ccccc2)cc1CN1CCOCC1
 : 6, 0, 1.9
> CCCC(=O)N1CC2(C1)CN(C(=O)C1CCCCC1)[C@H](CO)c1[nH]c3cc(OC)ccc3c12
 : -1, -4, -0.5
> Cc1noc(C)c1NC(=O)N[C@@H]1C=C[C@H](CC(=O)N2CCCCC2)O[C@@H]1CO
 : 5, -1, 1.2
> O=C(C[C@H]1CC[C@@H]2[C@H](COC[C@H](O)CN2Cc2ccncc2)O1)NCc1ccncc1
 : -1, -1, -4.3
> Cc1cc(C)c2cc(N)c(Cl)nc2n1
 : 1, 0, 1.3
> Cc1ccc(S(=O)(=O)Nc2ccc3c(c2)C(=O)N([C@H](C)CO)C[C@H](C)[C@@H](CN(C)C(=O)c2ccccc2)OCCCC[C@H](C)O3)cc1
 : -1, -2, 3.1
> CCCN1C[C@H](C)[C@H](OC)CN(C)C(=O)c2cc(NS(=O)(=O)CC)ccc2OC[C@H]1C
 : -1, -2, -1.7
> C[C@@H]1CN([C@H](C)CO)C(=O)c2cc(-c3ccccc3)cnc2O[C@@H]1CN(C)C(=O)Nc1ccccc1
 : -2, -7, -4.8
> C[C@@H]1CN([C@H](C)CO)C(=O)Cc2cc(NS(=O)(=O)c3ccc(Cl)cc3)ccc2O[C@@H]1CN(C)Cc1ccc(C(=O)Nc2ccccc2N)cc1
 : -6, -16, 0.2
> C[C@@H]1CN([C@H](C)CO)C(=O)c2cc(C#Cc3ccccc3F)cnc2O[C@@H]1CN(C)C(=O)C1CCC1
 : 1, -7, 1.0
> O=C(O)C[C@H]1C[C@H]2c3cc(NC(=O)Cc4ccncc4)ccc3O[C@H]2[C@@H](CO)O1
 : 2, 1, 1.2
> CC(C)NC(=O)N[C@@H]1CC[C@H](CC(=O)O)O[C@H]1CO
 : -1, 3, -0.3

Next results:
Below each compound: Ecoli rRNA inh, Ecoli rRNA inh OD600, Ecoli rRNA inh RFP
> C[C@H](CO)N1C[C@H](C)[C@H](CN(C)C(=O)c2ccc3c(c2)OCO3)Oc2cc(-c3cccnc3)ccc2S1(=O)=O
 : -3, -2, -0.1
> C[C@H](CO)N1C[C@H](C)[C@H](CN(C)Cc2ccccc2)Oc2ncc(C#Cc3ccc(F)cc3)cc2C1=O
 : -17, -43, 14
> CC(C)C#Cc1cnc2c(c1)C(=O)N([C@@H](C)CO)C[C@H](C)[C@@H](CN(C)Cc1cccc(F)c1)O2
 : -4, 1, 5.4
> C/C=C/c1cnc2c(c1)C(=O)N([C@H](C)CO)C[C@H](C)[C@H](CN(C)C(=O)c1cccc(F)c1)O2
 : 2, 3, -3.7
> C[C@@H]1CN([C@H](C)CO)C(=O)Cc2cc(N(C)C)ccc2O[C@H]1CN(C)Cc1ccc(-c2ccccc2)cc1
 : -22, -48, 5.2
> O=C(C[C@H]1CC[C@H](NS(=O)(=O)c2ccc(F)cc2)[C@H](CO)O1)N1CCc2ccccc2C1
 : -2, 1, -0.2
> COc1ccc(NC(=O)Nc2ccc3c(c2)C(=O)N([C@@H](C)CO)C[C@@H](C)[C@H](CN(C)CC2CCCCC2)OCCCC[C@@H](C)O3)cc1
 : 1, -3, 4.7
> O=C(Nc1ccc2c(c1)[C@@H]1C[C@H](CC(=O)N3CCOCC3)O[C@H](CO)[C@@H]1O2)c1ccc2c(c1)OCO2
 : -1, 4, -1.5
> Cn1cnc(CCNC(=O)C[C@@H]2CC[C@H]3[C@@H](COC[C@H](O)CN3C(=O)Nc3ccccc3)O2)c1
 : 2, 14, -5.4
> CCOC(=O)C1=CCC(c2ccc(F)cc2)N(S(=O)(=O)c2ccc(C)cc2)C1 (stereo unspecified)
 : -4, -6, 1.1

Following part
SMILES | Ecoli rRNA inh | Ecoli rRNA inh OD600 | Ecoli rRNA inh RFP
Cc1noc(C)c1NC(=O)Nc1cccc2c1O[C@@H](CN(C)C(=O)Nc1ccc(F)cc1)[C@H](C)CN([C@H](C)CO)C2=O | 4 | 9 | -0.3
Cc1ccc(S(=O)(=O)N(C)C[C@@H]2Oc3ccc(NS(=O)(=O)c4ccc(F)cc4)cc3C(=O)N([C@@H](C)CO)C[C@@H]2C)cc1 | -1 | -12 | 3.6
C[C@@H]1CCCCO[C@H](CN(C)C(=O)Nc2ccccc2)[C@@H](C)CN([C@H](C)CO)C(=O)c2cc(NS(=O)(=O)c3ccccc3)ccc2O1 | 2 | 2 | 1.2
O=C(N[C@@H]1CC[C@H](CC(=O)N2CCN(c3ccccc3)CC2)O[C@H]1CO)c1ccccc1 | -1 | -1 | -2.6
CC(=O)N1[C@H](CO)[C@H](c2ccc(-c3cccc(F)c3)cc2)[C@@H]1CNC(=O)C1CC1 | -4 | -4 | 1.5
O=C(C[C@@H]1C=C[C@@H](NC(=O)Nc2ccccc2F)[C@H](CO)O1)NCc1ccc(F)cc1 | 1 | 5 | 0.5
COc1ccc2c3c(n(C)c2c1)[C@@H](CO)N(Cc1nccs1)CC31CCN(C(C)=O)CC1 | -1 | 1 | -2.6
C/C=C/c1ccc2c(c1)O[C@@H](CN(C)C(=O)NCCC)[C@@H](C)CN([C@H](C)CO)S2(=O)=O | -1 | -5 | -2.7
C[C@H]1CN([C@@H](C)CO)C(=O)c2cc(C3=CCCCC3)cnc2O[C@@H]1CN(C)C(=O)c1cccnc1 | 0 | 10 | -3.9
C[C@@H]1CN([C@@H](C)CO)C(=O)c2cc(-c3cncnc3)cnc2O[C@@H]1CN(C)Cc1ccc(Oc2ccccc2)cc1 | -6 | -13 | 2.5
Cc1noc(C)c1NC(=O)Nc1ccc2c(c1)CC(=O)N([C@H](C)CO)C[C@@H](C)[C@@H](CN(C)Cc1ccncc1)O2 | -3 | -6 | -3.8
COCC(=O)N(C)C[C@H]1Oc2ncc(C#CC(C)(C)O)cc2C(=O)N([C@H](C)CO)C[C@H]1C | 5 | -1 | 0.1
O=C(NCC[C@H]1CC[C@H](NC(=O)C2CCC2)[C@@H](CO)O1)c1cc(Cl)cc(Cl)c1 | -2 | -3 | 2.4
CC(C)NC(=O)N(C)C[C@H]1Oc2c(NS(=O)(=O)c3ccccc3)cccc2C(=O)N([C@@H](C)CO)C[C@H]1C | -4 | -3 | -2.8
COc1cc(OC)c(C=Cc2ccncn2)c(OC)c1 | 3 | -21 | -1.5
COc1cc(C=C2C(=O)C=CC2=O)ccc1O | 11 | 12 | -5.8
COc1ccc2c3c(n(C)c2c1)[C@H](CO)NCC31CN(C(=O)Nc2ccc(F)cc2F)C1 | 0 | -4 | 6.3
CS(=O)(=O)Nc1ccc2c(c1)[C@H]1C[C@@H](CC(=O)N3CCc4ccccc4C3)O[C@H](CO)[C@H]1O2 | -1 | 4 | -1.7
CC=Cc1ccc2n(c1=O)C[C@H]1[C@H](CO)[C@@H](C(=O)NCC)[C@@H]2N1C(=O)c1ccc(F)cc1 (mixture of isomers) | 3 | -1 | -1.8
